Source: PubChem BioAssay (several laboratories)
Insulin prom inh = TRM-6 insulin promoter activity inhibition; hit rate 0.9% among 130,000; inhibition, % at 2 µM; TRM-6 cells (human fetal islet line), insulin promoter-eGFP reporter, imaging; reporter expression induced with tamoxifen;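 active means inhibition above the mean plus 3 SD, with well images judged a real hit on visual review, cut at about 60% in these data, passing the limit was not always enough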
GALR2 ag = agonists of human galanin receptor 2 (GALR2) | O43603 | GALR2-expressing cells, agonist activation read-out | activation, %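 (tested at 5 µM)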 | hit rate 0.48% among 140,000 | AID 803;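 active means above mean plus 3 SD of all compounds, about 5% in these data, not always enough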;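 further: 0% = vehicle buffer wells and 100% = reference agonist at full effect; tested in CHO reporter cells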
HSV replic up = increases HSV replication in cells | HSV replication augmentation in cells, fold increase | maximum fold increase | hit rate 0.005% among 220,000 | AID 1956;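 active means peak rise of 1.5-fold or more in the series; tested in PC3 cells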;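 further: first round at 10 µM; read as green reporter fluorescence; hits show the peak of a series up to 25 µM; 1 = signal of infected wells without compound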
RGS16-Gao = RGS16-Galphao interaction regulator (human); O15492+P09471; bead-based flow cytometry RGS16-Galphao binding, fluorescence; actives lie on both sides; binding response (% of control), % at 10 µM; hit rate 0.38% among 220,000; AID 1441;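 active means below 25% or above 175%, edge rows of some plates excepted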;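 further: Galphao activated by GDP with aluminum fluoride before binding; 100% = wells without compound and 0% = beads without RGS; some results beyond the cut were filed as inactive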
PKD1 kinase inh = PKD1 (human) kinase inhibition | Q15139 | inhibition, %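 (about 10 µM by stock and volumes)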 | PKD1 kinase fluorescence polarization assay | hit rate 0.056% among 200,000 | AID 797;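 active means inhibition of 50% or more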;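 further: controls were vehicle for no effect and a reference inhibitor for full effect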
Target sequence (Q15139 whole entry, looked up): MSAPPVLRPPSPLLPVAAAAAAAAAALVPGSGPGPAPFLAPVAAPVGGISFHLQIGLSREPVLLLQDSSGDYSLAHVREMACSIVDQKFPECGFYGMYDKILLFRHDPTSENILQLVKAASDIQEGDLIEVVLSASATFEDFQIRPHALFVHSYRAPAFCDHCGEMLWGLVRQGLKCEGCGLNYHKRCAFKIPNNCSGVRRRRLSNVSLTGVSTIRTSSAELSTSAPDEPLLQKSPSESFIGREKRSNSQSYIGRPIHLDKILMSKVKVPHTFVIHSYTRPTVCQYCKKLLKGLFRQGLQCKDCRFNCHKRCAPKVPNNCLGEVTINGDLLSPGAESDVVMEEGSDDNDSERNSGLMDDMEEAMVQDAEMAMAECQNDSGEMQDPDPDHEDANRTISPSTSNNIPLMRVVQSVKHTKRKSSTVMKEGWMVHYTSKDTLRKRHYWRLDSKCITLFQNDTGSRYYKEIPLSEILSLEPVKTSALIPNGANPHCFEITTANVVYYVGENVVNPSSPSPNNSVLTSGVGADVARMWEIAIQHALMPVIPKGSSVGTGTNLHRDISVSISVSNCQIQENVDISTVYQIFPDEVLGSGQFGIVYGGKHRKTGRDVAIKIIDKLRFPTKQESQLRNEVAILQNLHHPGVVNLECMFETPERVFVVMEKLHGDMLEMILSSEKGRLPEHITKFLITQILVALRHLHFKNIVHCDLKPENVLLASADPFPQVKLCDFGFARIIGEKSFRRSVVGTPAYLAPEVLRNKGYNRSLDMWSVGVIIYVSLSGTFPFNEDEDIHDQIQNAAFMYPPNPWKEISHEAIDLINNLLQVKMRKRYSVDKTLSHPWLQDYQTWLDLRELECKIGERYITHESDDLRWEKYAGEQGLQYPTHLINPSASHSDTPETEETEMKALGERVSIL
Insulin prom inh cell count = further read-out of Insulin prom inh, marked with its call; normalized cell count, %; measured here: cell count, toxicity; reference of the scale not given here;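 cells exposed to compound for 48 h; stained nuclei by imaging scaled within each plate; lower means fewer cells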
HSV replic up primary fold = also measured in HSV replic up; calls as there; fold increase; compound at 10 µM; measured here: primary screen fold increase 10 uM; tested in PC3 cells;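 GFP signal in the first replicate; 1 = infected wells without compound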
* hit, by the source's call; i = inactive; nt = no result given.

SMILES	Insulin prom inh	Insulin prom inh cell count	GALR2 ag	HSV replic up	HSV replic up primary fold	RGS16-Gao	PKD1 kinase inh
Cc1ccc(-c2nn(-c3ccccc3)cc2/C=N/n2c(-c3cccs3)n[nH]c2=S)cc1	nt	nt	nt	i	0.91	104	nt
COc1ccc2[nH]c(C(=O)O)c(NC(=O)c3ccccc3[N+](=O)[O-])c2c1	nt	nt	nt	i	0.88	99	nt
COc1ccc(CCNC(=O)C(=O)NCc2cccs2)cc1OC	nt	nt	nt	i	1.1	98	0
Cc1ccccc1CNC(=O)c1ccc(CSCc2ccccc2)cc1	16	136	-2.1	i	0.95	101	-1
CC(C)c1cc(-c2cc(C(=O)NCc3ccccc3)on2)nc(NCC2CC2)n1	nt	nt	nt	i	0.69	101	nt
CC1(C)C2CCC(C2)C1(C)NC(=O)CNCC1CCCCC1 (centres undefined)	-73	86	nt	i	0.89	107	2
O=C(Nc1ccc(F)c(F)c1)c1ccc2c(c1)OCO2	-36	116	-1.4	i	0.92	104	-3
COc1cc(C2C(N3C(=O)c4ccccc4C3=O)C(=O)N2c2ccc(C)c(C)c2)cc(OC)c1OC (centres undefined)	11	157	0.1	i	1	102	-3
COC(=O)CSc1nnc(CNc2nc(-c3ccccc3)cs2)n1C	-40	91	-2.9	i	0.93	107	2
COc1ccc(C(c2c[nH]c3ccccc23)c2c[nH]c3ccccc23)cc1O	nt	nt	-1.2	i	1.1	104	-3
CCCCCCC(C)OC(=O)Nc1cccc2ccccc12 (centres undefined)	nt	nt	nt	i	0.98	105	nt
O=C1CC(c2ccc(Cl)cc2)CC(O)=C1C=NCc1ccc(Cl)c(Cl)c1 (centres undefined)	-13	91	-2.8	i	0.93	101	-10
C/C(CC(=O)NC1CCCCC1)=N\NC(=O)c1ccccn1	nt	nt	nt	i	0.69	52	-8
COc1cc(C(=O)NC(C)c2cnn(-c3ccccc3C)c2C)cc(OC)c1OC (centres undefined)	nt	nt	nt	i	0.93	105	1
COc1ccc(CCN2C(=O)C3C4C=CC(C4)C3C2=O)cc1OC (centres undefined)	11	139	-3.3	i	1.4	102	-8
COc1ccc(OC)c(C2C=C(C34CC5CC(CC(C5)C3)C4)NC(=S)N2)c1 (centres undefined)	37	90	2.7	i	0.8	192	-13
Cc1ccsc1C1C(C#N)=C(N)OC2=C1C(=O)CCC2 (centres undefined)	25	99	nt	i	0.93	109	0
CC(=O)c1cc(C#N)c(Oc2ccc(Cl)cc2Cl)nc1C	nt	nt	-1.9	i	0.9	nt	-4
COc1ccccc1C(=O)NCCn1cc(SCC(=O)Nc2nnc(C)s2)c2ccccc21	nt	nt	-0.1	i	0.91	97	-2
COc1ccc(NC(=O)c2cc(S(=O)(=O)N3CCCC3)oc2C)cc1	nt	nt	nt	i	1	104	nt
O=C1C2C(c3ccccc3)C=CC(c3ccccc3)C2C(=O)N1c1ccccn1 (centres undefined)	36	156	-0.3	i	0.85	98	5
COCCNC(=O)c1c[nH]n2c(=O)cc(C3CCN(C(=O)OC(C)(C)C)CC3)nc12	nt	nt	-3.5	i	0.83	106	0
Cc1ccc(-c2nn(C)c(=O)c3ccccc23)cc1S(=O)(=O)N1CCOCC1	-100	103	-0.6	i	0.98	96	-12
NNc1cc(C(=O)O)ccc1Cl	nt	nt	nt	i	0.98	100	nt
O=C(Nc1ccc(Br)cc1)N1CCCCCCC1	nt	nt	-3.1	i	0.96	98	4
O=C1/C(=C/c2cccc(O)c2)SC(=S)N1CC1CCCO1 (centres undefined)	nt	nt	nt	i	0.67	104	nt
c1csc(CSc2nc3ccccc3s2)c1	21	57	-2.9	i	0.94	102	-6
O=C(NCC1CCCO1)c1cccc(Oc2ccc([N+](=O)[O-])cc2Cl)c1 (centres undefined)	nt	nt	nt	i	0.9	101	1
CC(Nc1nc(N2CCOCC2)nc2ccccc12)c1ccccc1 (centres undefined)	-42	155	nt	i	0.85	105	0
O=C(CN(Cc1ccco1)C(=O)CCC(=O)Nc1ccccn1)NCCc1ccccc1	-36	67	-2.9	i	0.92	100	14
Clc1ccc(SCCCN2CCCCC2)cc1	nt	nt	nt	i	0.87	99	nt
Cc1ccc(-n2cccn2)c(CN2CCCC(CNC(=O)c3ccc(F)cc3)C2)c1 (centres undefined)	nt	nt	nt	i	0.88	101	-3
CN(c1ccccc1)S(=O)(=O)c1cccc(NC(=O)CSc2n[nH]c(N)n2)c1	nt	nt	nt	i	0.81	104	nt
CCn1c(SCC(=O)Nc2ccccc2F)nc2c(c1=O)SC(C)C2 (centres undefined)	-18	97	-1.0	i	0.91	105	-8
CC1CCc2c(C(=O)NCc3ccccn3)csc2C1 (centres undefined)	-4	155	-1.2	i	0.84	100	-11
COc1ccc(C)cc1S(=O)(=O)N(CC(=O)Nc1cccc([N+](=O)[O-])c1)c1ccccc1	nt	nt	-1.5	i	0.86	105	-5
Cc1ccc(S(=O)(=O)NNC(=O)CCC(=O)Nc2ccc(C)c(C)c2)cc1	39	65	-1.6	i	1	106	6
O=C(Nc1cc(Cl)ccn1)C1CCN(S(=O)(=O)c2cccs2)CC1	37	118	-3.0	nt	nt	108	-13
CC(C)(C)c1ccc(C(=O)Nc2ccc(O)c3c(=O)cc(-c4ccccc4Cl)oc23)cc1	nt	nt	nt	i	0.67	83	nt
CCOc1ccc2nc(C)cc(Nc3cccc([N+](=O)[O-])c3)c2c1	29	86	0.6	i	0.6	111	-9
CC1CCCCN1Cc1c(O)ccc2c(=O)c(-c3nc4ccccc4s3)coc12 (centres undefined)	nt	nt	nt	i	1	100	nt
O=C(O)Cn1nnnc1SCC(=O)Nc1ccccc1F	nt	nt	nt	i	0.95	105	-4
COc1ccc(C2C(C(=O)Nc3cccc(C)n3)CCC(=O)N2c2ccc(OC)cc2)cc1 (centres undefined)	nt	nt	0.1	i	1.1	104	9
CN1CCN(Cc2ccc(Sc3ccc(Cl)cc3)c([N+](=O)[O-])c2)CC1	nt	nt	nt	i	0.85	102	2
CCc1c(O)nc(SCC(=O)Nc2ccccc2)n(-c2ccccc2)c1=O	nt	nt	-1.6	i	0.76	105	-11
COc1cccc(CN2CCNC(=O)C2CC(=O)O)c1OC (centres undefined)	nt	nt	-0.8	i	1	100	-12
CCOc1[nH]n(-c2ccc(Cl)cc2)c(=O)c1C=Nc1ccc(Cl)cc1	20	146	-0.8	i	0.93	98	-16
O=C(Cc1n[nH]c(=O)c2ccccc12)OCC(=O)c1ccc2c(c1)OCCO2	nt	nt	-0.7	i	0.6	114	-7
CC(C)(CNC(=O)c1ccc(Cl)c(S(=O)(=O)N2CCc3ccccc3C2)c1)N1CCOCC1	0	121	nt	i	0.98	97	2
COc1ccc(-n2cc(CNCCN3CCOC3=O)c(-c3ccccc3Cl)n2)cc1	nt	nt	nt	i	0.84	95	nt
C/C(CC(=O)Nc1ccc(F)cc1)=N\NC(=O)COc1ccccc1	43	73	-1.8	i	0.89	110	-3
CCOc1ncccc1C(=O)OCC(=O)N1CCc2ccccc21	nt	nt	nt	i	1	92	-6
COc1ccc(Br)cc1C(=O)Nc1ccc(C(=O)O)cc1	-341	51	nt	i	1.1	103	-2
O=C(CSc1nnc(SCc2cccc3ccccc23)s1)Nc1ccc(C(=O)O)cc1	-21	92	nt	i	1.1	101	2
Cc1c(C(=N)C(C#N)C#N)c(=N)oc2c1ccc1ccccc12	nt	nt	nt	i	0.86	103	nt
CCNC1CCS(=O)(=O)C1 (centres undefined)	nt	nt	nt	i	1.1	91	nt
CCN(CCn1cccn1)Cc1c(C(=O)N2CCCCCCC2)nc2ccc(Cl)cn12	nt	nt	nt	i	0.89	101	0
CCOC(=O)C1(CCCc2ccccc2)CCN(Cc2cnc(C)s2)CC1	nt	nt	nt	i	0.97	102	2
CCN1CCN(CC(=O)Nc2cccc(C)c2C)C(=O)C1=O	nt	nt	-2.6	i	0.83	103	3
COc1cccc(C2C(C#N)=C(N)Oc3cc(C)n(Cc4ccccn4)c(=O)c32)c1OC (centres undefined)	nt	nt	-1.7	i	0.91	100	-6

Whole records, quoted from the list. Screens in order: Insulin prom inh | Insulin prom inh cell count | GALR2 ag | HSV replic up | HSV replic up primary fold | RGS16-Gao | PKD1 kinase inh
Record of O=C(CSc1nnc(SCc2cccc3ccccc23)s1)Nc1ccc(C(=O)O)cc1 = -21 | 92 | nt | i | 1.1 | 101 | 2
Record of O=C(Cc1n[nH]c(=O)c2ccccc12)OCC(=O)c1ccc2c(c1)OCCO2 = nt | nt | -0.7 | i | 0.6 | 114 | -7
Record of CCNC1CCS(=O)(=O)C1 (centres undefined) = nt | nt | nt | i | 1.1 | 91 | nt

(list continues)
SMILES	Insulin prom inh	Insulin prom inh cell count	GALR2 ag	HSV replic up	HSV replic up primary fold	RGS16-Gao	PKD1 kinase inh
CC1(C)CC(N2CCCC2)=CC(=[N+]2CCCCCC2)C1	nt	nt	nt	i	1	101	-7
CCC(C)N(C)C1CCN(C(=S)Nc2cccc(SC)c2)CC1 (centres undefined)	nt	nt	nt	i	1	100	0
Cc1c(C)n(C)c2ccc(C(=O)Nc3cccc4ccccc34)cc12	16	101	-2.9	i	0.91	104	2
CC(=O)C(/C=N/c1cc(-c2ccc(C)cc2)nn1-c1ccccc1)=C(\C)O	19	76	-0.9	i	0.85	112	3
N#CC(=C=[N-])c1nc2ccccc2nc1-[n+]1cccc(NC(=O)c2cccs2)c1	nt	nt	nt	i	0.89	107	nt
Cc1ccc(N2C(=O)CC(N3CCN(C)CC3)C2=O)cc1 (centres undefined)	44	104	-2.6	i	0.86	85	-6
CC(C)CCN1C(=O)c2ccc(C(=O)Nc3c[nH]c(=O)[nH]c3=O)cc2C1=O	17	113	nt	i	0.8	103	10
Cc1cc2nc(CCl)cc(=O)n2[nH]1	nt	nt	nt	i	0.93	100	-4
CN(C)c1cccc(C(=O)Nc2cccc(F)c2)c1	33	173	-2.2	i	0.93	101	-9
CCCCN=C1CC(C)(C)CC(=O)/C1=C(/O)CCCN1C(=O)c2ccccc2C1=O	nt	nt	nt	i	1	101	2
O=C(CSc1nc2ccccc2[nH]1)NCCCn1ccnc1	nt	nt	-2.2	i	1.1	102	0
COc1ccc(-c2nnn(CC(=O)OC3CCCCC3)n2)cc1OC	55	64	-1.3	i	0.92	101	15
COc1ccccc1NC(=O)CSc1nc(N)c(C#N)cc1C#N	-85	95	nt	i	1.1	69	-11
CCc1cc2c(=O)n(C(C)C(=O)OC3CCCCC3)cnc2s1 (centres undefined)	-290	58	0.3	i	1.1	103	5
c1ccc(Cc2nnc3n2CCCCC3)cc1	nt	nt	-0.8	i	0.92	98	4

Results in Insulin prom inh, PKD1 kinase inh and GALR2 ag (2 entries from above):
smiles | Insulin prom inh | PKD1 kinase inh | GALR2 ag
CCC(C)N(C)C1CCN(C(=S)Nc2cccc(SC)c2)CC1 (centres undefined) | nt | 0 | nt
Cc1c(C)n(C)c2ccc(C(=O)Nc3cccc4ccccc34)cc12 | 16 | 2 | -2.9

Other entries:
SMILES	Insulin prom inh	Insulin prom inh cell count	GALR2 ag	HSV replic up	HSV replic up primary fold	RGS16-Gao	PKD1 kinase inh
CC(C)n1c(N2CCN(C(=O)N3CCCCC3)CC2)nc2ccccc21	24	81	-0.8	i	1	97	-3
Brc1csc2ncccc12	nt	nt	nt	i	0.98	96	nt
CC(C)c1[nH]nc2c1C(c1cccnc1)C(C#N)=C(N)O2 (centres undefined)	46	121	-0.8	i	0.93	99	-16
Cc1ccccc1C(=O)N1CCN(c2ccc([N+](=O)[O-])c(NCc3ccco3)c2)CC1	-25	92	-2.1	i	0.88	94	4
CCn1cc(-c2ccnc3cc(C(=O)O)nn23)c(C)n1	nt	nt	nt	i	0.94	100	1
CCC1Oc2ccccc2N(CC(=O)NCCc2ccc(OC)c(OC)c2)C1=O (centres undefined)	-27	112	-0.6	i	0.85	106	-13
CCOC(=O)CCCNc1ccc([N+](=O)[O-])cc1[N+](=O)[O-]	-6	41	-0.2	i	0.97	86	-4
O=C(Nc1cccc(Cl)c1)N1CCN(Cc2ccccc2)CC1	nt	nt	-1.2	i	0.97	105	-5
COc1cc(CN2CCNC(=O)C2CC(=O)N2CCCCO2)cc(OC)c1 (centres undefined)	nt	nt	nt	i	1	106	-7
Cc1nccn1CC(O)COC1CCCCC1 (centres undefined)	-68	114	-1.1	i	0.88	92	7
CC(=O)c1cc2c(cc1NS(=O)(=O)c1ccc3c(c1)OCCO3)OCO2	nt	nt	-0.8	i	0.81	110	-7
COc1cc(OC)cc(C(=O)NCc2cccnc2)c1	22	60	-1.7	i	0.89	108	7
CC(C)CCN1CCN(Cc2ccc(C#CC(C)(C)O)s2)CC1CCO (centres undefined)	nt	nt	nt	i	0.95	100	1
